From PubChem BioAssay
NPYLR7 ag = mosquito NPYLR7 agonism; HEK293T NPYLR7/Galpha15, GCaMP6s calcium fluorescence; activation, % at 10 µM; 0.15% of 270,000 active; in the data active = activation above about 40%;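 also: 0% = vehicle and 100% = reference agonist at the receptor; some compounds past the cut are filed as inactive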
NPYLR7 ag max-min = further read-out of NPYLR7 ag, marked with its call; activation, %; measured here: Max-Min RFU normalised activation; some inactives read as strong as hits;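 span of the calcium signal over five minutes; 0% = vehicle and 100% = native peptide agonist; compound fluorescence can raise it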
Active calls of the source: *; & = joins results of further samples.

Under each structure – NPYLR7 ag max-min, NPYLR7 ag
(1) O=C(N[C@H]1CN[C@H](C(=O)N2CCOCC2)C1)c1cccc(Cl)c1Cl
    2.8, 5.9
(2) Cc1ccc(NCC(=O)N(C)C2CCCCC2)c(F)c1
    7.6&-5.7, 8.3&-5.6
(3) C=C1C(=O)O[C@@H]2[C@H]3O[C@]3(C)CC/C=C(\C)CC[C@@H]12
    -8.1, -3.4
(4) CCn1ccnc1CN(C)C(=O)c1ccc(OC2CCN(S(=O)(=O)N(C)C)CC2)cc1
    -12.5, -10.3
(5) CCOc1ccc(NC(=O)CC2SC(=Nc3ccccc3)N(c3ccccc3)C2=O)cc1 (centres undefined)
    -11.7, -6.3
(6) CNC(=O)[C@H]1CN(C(=O)COc2ccccc2)[C@]2(C)C(=O)Nc3ccccc3[C@H]12
    22.5, 25.2
(7) Cc1ccc(-c2c(C)nn3c(N4CC(C)CC(C)C4)cc(C)nc23)cc1 (centres undefined)
    -3.5, 0.4
(8) Cc1nc(-c2ccc(Oc3ccc(C(F)(F)F)cn3)cc2)no1
    7.8, 6.6
(9) CCCCCCCCC(=O)N1CCCC1C(=O)Nc1nnc(-c2cccc(Br)c2)s1 (centres undefined)
    10.9, 8.9
(10) C=CC[C@@H]1CC=C[C@@H](C)N1Cc1nc(-c2ccc(C(=O)OC)cc2)no1
    6.6, 6.6
(11) Cc1cc(C)c2c(c1C(=O)N(C)CC1OCCO1)CC(C)(C)C2=O
    -13.8, -7.3
(12) CCOc1ccc(OCc2cccc(C(=O)OCC(F)(F)C(F)F)c2)cc1
    -0.9, 0.0
(13) CCC(C(=O)NC1CCN(c2ccccc2C(=O)NCc2ccco2)CC1)c1ccccc1 (centres undefined)
    2.7, -4.2
(14) O=C1NC(=O)N(c2ccc(Cl)cc2)C(=O)/C1=C/C=C/c1ccco1
    0.1, 4.3
(15) COCc1c(Br)cccc1NC(=O)/C=C/c1ccccn1
    4.3, 3.4
(16) CCCNC(=O)N(CC(=O)N1CCc2sccc2C1COc1ccc(C)cc1C)CC1CCCO1 (centres undefined)
    3.5, -2.7
(17) Cc1cccc2c1c(-c1ccc(C(N)=O)cc1)nn2C
    7.7, 11.8
(18) Cc1ccc2c(c1)CCCN2C(=O)CN(C)Cc1snnc1C
    11.1, 18.4
(19) CCOC(=O)c1sc(NC(=O)c2cccnc2)nc1C
    9.5, 17.2
(20) Cc1nn(-c2ccccc2)c2[nH]cc(C(=O)N3c4ccc(F)cc4CCC3C)c(=O)c12 (centres undefined)
    24.3, -2.1
(21) CN(C)c1ccc(Sc2nnc(NC(=O)c3ccc(Cl)cc3)s2)cc1
    -5.3, -6.3
(22) Cc1ccc2nc(C)n(C3CCN(C(=O)CCN4C(=O)C=CC4=O)CC3)c2c1
    -2.5, -0.9
(23) COc1ccccc1OC1CCN(C2CCN(c3nc(C)c4cc(C)c(C)cc4n3)CC2)CC1
    9.5, 20.0
(24) Cn1nc(-c2c(-c3ccccc3)ncn2CCO)c2c(Cl)cccc21
    -2.1, -1.4
(25) C=CCNC(=O)N[C@H]1[C@H](O)[C@@H](NCCOC)[C@@H]2OC[C@H]1O2
    -13.8, -7.1
(26) COc1ccccc1-n1ncc2c(C)nnc(SCC(=O)NCc3ccco3)c21
    -15.4, -10.2
(27) Cc1cccnc1CN(c1nc(CCN)nc2ccccc12)C(C)C
    -5.6, -6.9
(28) O=C(CCc1nc2ccccc2c(=O)[nH]1)NC1CCc2ccccc21 (centres undefined)
    2.8, 9.0
(29) O=C(C=Cc1ccco1)NCc1ccc(F)cc1
    0.5, 1.6
(30) CCc1nc2c(OCC(=O)N(C)C)cccn2c1N(C=O)Cc1ccccc1
    0.1, 3.9
(31) COc1cccc(-c2nc(C(N)=O)c3[nH]c(=O)n(-c4ccc(C)c(C)c4)c3n2)c1O
    -8.5, -7.4
(32) COc1cccc(-c2cc(-c3ccc(C(=O)NCCOc4ccccc4)cc3)[nH]n2)c1
    7.2, 0.8
(33) CCN1CCN(C(=O)c2ccc(CSc3nnc(-c4ccccc4Cl)n3Cc3ccccc3)cc2)CC1
    13.3, 4.0
(34) O=C1CCN(CC(O)Cc2ccccc2)c2ccccc2CCN1C/C=C/c1ccccc1 (centres undefined)
    26.6, 23.8
(35) Fc1cccc(Nc2nc3ccc(Cl)cc3n3cnnc23)c1
    6.9, 15.7
(36) CCS(=O)(=O)Oc1cc(CN(Cc2ccco2)C(=O)c2ccccc2Cl)ccc1OC
    9.8, 0.4
(37) Cc1cc(CS(=O)CC(=O)Nc2ccc(F)cc2F)no1 (centres undefined)
    8.9, 10.3
(38) CCCCC1=NN2C(=N)/C(=C/c3ccc(C)cc3)C(=O)N=C2S1
    0.0, 0.6
(39) Fc1ccccc1-n1cn[nH]c1=S
    0.0, 2.9
(40) O=C(NC1CCN(c2ccccc2C(=O)N2CCc3ccccc3C2)CC1)c1ccc(Cl)cc1Cl
    24.8, 24.8
(41) COc1ccc(C)cc1S(=O)(=O)Nc1ccccc1C(=O)NCc1cccc(Cl)c1
    11.2, -1.5
(42) CCc1nc2ccc(C(=O)N3CCN(C(=O)c4ccco4)CC3)cn2c1N(C=O)Cc1ccc(OC)cc1
    19.1, 22.8
(43) O=C(CN1CCc2ccccc2C1)Nc1ccc(N2CCOCC2)cc1
    -21.1, -20.8
(44) COc1ccc(-c2nnc(NC(=O)C(C)NC(=O)Nc3ccccc3OC)s2)cc1 (centres undefined)
    0.9, -5.3
(45) CCc1nnc(NC(=O)CSc2nnc(NC(=O)c3cc(Cl)ccc3Cl)s2)s1
    1.1, -6.2

Shown tab-delimited: entries from further up.
No.	Structure	NPYLR7 ag max-min	NPYLR7 ag
40	O=C(NC1CCN(c2ccccc2C(=O)N2CCc3ccccc3C2)CC1)c1ccc(Cl)cc1Cl	24.8	24.8
41	COc1ccc(C)cc1S(=O)(=O)Nc1ccccc1C(=O)NCc1cccc(Cl)c1	11.2	-1.5
42	CCc1nc2ccc(C(=O)N3CCN(C(=O)c4ccco4)CC3)cn2c1N(C=O)Cc1ccc(OC)cc1	19.1	22.8

Other compounds:
Under each structure – NPYLR7 ag max-min, NPYLR7 ag
(46) Cc1cc2c(c(-c3ccc4c(cnn4C)c3)c1)OC(CN)C2 (centres undefined)
    42.2*, 76.1*
(47) O=C1OCCC1Sc1nnc(NCc2ccc(F)cc2)s1 (centres undefined)
    -4.3, -2.5
(48) O=S(=O)(c1ccsc1)N1CCC(CO)(Cc2ccccc2Cl)CC1
    -12.6, -10.4
(49) COc1ccc2cc(CN3CCN(S(=O)(=O)N(C)C)CC3)c(=O)[nH]c2c1
    6.8, 9.3
(50) Cc1ccccc1C(=O)Nc1cccc(-c2nc3cc(Cl)ccc3o2)c1
    -10.0, -1.5
(51) N#Cc1cccc(NCC(=O)N2N=C(c3cccs3)CC2c2cccs2)c1 (centres undefined)
    -0.1, 1.1
(52) FC(F)(F)c1ccc2nnc(SC/C=C/c3ccccc3)n2c1
    7.8, 6.7
(53) CCc1cc(=O)n2[nH]c(C(F)(F)F)c(-c3ccccc3)c2n1
    -2.4, -4.0
(54) C=CCN1C(=O)C(=O)N(c2ccccc2)C1=S
    -9.1, -7.5
(55) CCCCN(C(=O)CSc1ncnc2sc3c(c12)CCC3)C1CCS(=O)(=O)C1 (centres undefined)
    0.2, -0.2
(56) Cc1cn2c3c(=O)n(Cc4ccccc4F)c(=O)n(C)c3nc2n1CCc1ccccc1
    -2.0, 0.8
(57) COc1ccc(Cc2nc3ccc(C(=O)N(C)CCc4cnn(C)c4)cc3o2)cc1OC
    -2.4, 1.8
(58) COc1ccccc1NC(=O)NCC(c1cccn1C)N1CCCC1 (centres undefined)
    0.3, 0.1
(59) c1nc(Sc2nnnn2C2CC2)c2ccsc2n1
    14.3, 9.3
(60) Fc1ccc(-c2noc3nc(NC4CCOCC4)ccc23)cc1
    0.2, 4.2
(61) Clc1ccc(Nc2nc(NCCc3ccccc3)nc3nccnc23)cc1
    10.5, -2.0
(62) COC(=O)CCCC(=O)N1CCC(Cc2ccc(OC)cc2)CC1
    10.7, 9.0
(63) O=C(C1CC2(CCNCC2)CN1)N1CCOc2ccc(Cl)cc2C1 (centres undefined)
    5.8, 18.4
(64) COCC(=O)Nc1ccc(N(C)C)c(CN(CC(C)C)C(=O)Cc2cccs2)c1
    19.7, 7.7
(65) CC(=O)c1sc(=Nc2ccc(Cl)cc2)n(N2CCOCC2)c1C
    -11.0, -5.1
(66) CC(C)(C)C(NCC(=O)NC(=O)NCC(F)(F)F)c1cccs1 (centres undefined)
    3.4, 3.9
(67) CSc1nn(CC(=O)Nc2cccc(Cl)c2)c(N)c1S(=O)(=O)c1ccccc1
    -13.8, -7.0
(68) Cn1nc(NC(=O)c2cccs2)c2c1NC(=O)CC2c1ccco1 (centres undefined)
    -19.7, -14.6
(69) COc1cccc(-c2cc(C(=O)NC3CCN(Cc4ccccc4)CC3)n3nc(-c4ccccc4)cc3n2)c1
    12.2, 2.1
(70) Cc1cc(C(=O)N(C)C2Cc3ccccc3C2)nc(C)n1
    -3.5, 2.5
(71) O=C(Cc1ccc(NCc2ccon2)cc1)N1CCSCC1
    3.0, 2.0
(72) COc1ccc(NC(=O)Cn2ccn3nc(-c4ccc(C)cc4)cc3c2=O)cc1Cl
    1.9, 2.2
(73) N#Cc1cccc(NC(=O)c2ccc3c(c2)COCO3)c1
    2.2, 7.7
(74) COCCN(CC(=O)N(Cc1ccc(F)cc1)Cc1ccc(C)s1)C(=O)CCc1ccccc1
    24.9, 20.0
(75) Cc1cc(OCc2cccc(C(=O)O)c2)ccc1[N+](=O)[O-]
    1.4, 4.4
(76) O=C(NCCc1nc2ccccc2[nH]1)c1ccc2c(c1)OCO2
    -12.4, -12.6
(77) COc1ccc(CCN(Cc2ccc(C)o2)C(=O)CN(CCN2CCCCC2)C(=O)c2ccc(F)cc2)cc1OC
    7.5, 4.0
(78) CCc1c(C(=O)OC)sc2nc(CNCCOC)[nH]c(=O)c12
    12.2, 9.7
(79) COc1cc([N+](=O)[O-])cc(/C=C2\SC(=Nc3ccccc3Cl)NC2=O)c1O
    -24.8, -13.8
(80) COc1ccc(-c2cc(COC(=O)c3cccs3)no2)cc1OC
    -2.8, -1.9
(81) c1ccc(-c2nccn2CC2OCCc3ccccc32)nc1 (centres undefined)
    -4.5, -0.4
(82) CC[n+]1c(C)n(-c2ccccc2)c2ccc3ccccc3c21
    -6.4, -3.6
(83) CCOC(=O)c1sc(=S)n(C)c1NC(=O)c1ccc(C(C)(C)C)cc1
    -12.7, -5.5
(84) Cc1cccc(SC2CCN(c3cc(CCN)nc(C)n3)CC2)c1
    -8.8, -6.9
(85) CCCN(CCO)C(=O)CC1C(=O)NCCN1C(C)C (centres undefined)
    -3.5, 0.2
(86) COc1ccc(N(C)C(=O)c2ccc(Cn3nc(NC(=O)c4ccno4)c4ccccc43)cc2)cc1
    19.2, 16.1
(87) COc1cc(NC(=O)CCNC(=O)C23CC4CC(CC(C4)C2)C3)cc(OC)c1OC
    10.0, 7.3
(88) Cc1nn(-c2ccccc2)c2ncc(C(=O)N3CCN(c4ccc(F)cc4)CC3)c(Cl)c12
    -2.1, 0.8
(89) Cn1cnnc1Sc1ccc(CN2CCOc3ccc(C4=Cc5ccccc5C4)cc3C2)o1
    6.1, 5.9
(90) Cc1ccc(-n2nnnc2CNC(=O)c2ccccc2S(=O)(=O)C(F)F)cc1C
    0.2, 0.8
(91) Cc1nn2c3ccccc3n(Cc3ccccc3)c2nc1=O
    4.5, 4.0

Filtered by structure: those above with a thiophene ring, fused or not
Under each structure – NPYLR7 ag max-min, NPYLR7 ag
(16) CCCNC(=O)N(CC(=O)N1CCc2sccc2C1COc1ccc(C)cc1C)CC1CCCO1 (centres undefined)
    3.5, -2.7
(48) O=S(=O)(c1ccsc1)N1CCC(CO)(Cc2ccccc2Cl)CC1
    -12.6, -10.4
(51) N#Cc1cccc(NCC(=O)N2N=C(c3cccs3)CC2c2cccs2)c1 (centres undefined)
    -0.1, 1.1
(55) CCCCN(C(=O)CSc1ncnc2sc3c(c12)CCC3)C1CCS(=O)(=O)C1 (centres undefined)
    0.2, -0.2
(59) c1nc(Sc2nnnn2C2CC2)c2ccsc2n1
    14.3, 9.3
(64) COCC(=O)Nc1ccc(N(C)C)c(CN(CC(C)C)C(=O)Cc2cccs2)c1
    19.7, 7.7
(66) CC(C)(C)C(NCC(=O)NC(=O)NCC(F)(F)F)c1cccs1 (centres undefined)
    3.4, 3.9
(68) Cn1nc(NC(=O)c2cccs2)c2c1NC(=O)CC2c1ccco1 (centres undefined)
    -19.7, -14.6
(74) COCCN(CC(=O)N(Cc1ccc(F)cc1)Cc1ccc(C)s1)C(=O)CCc1ccccc1
    24.9, 20.0
(78) CCc1c(C(=O)OC)sc2nc(CNCCOC)[nH]c(=O)c12
    12.2, 9.7
(80) COc1ccc(-c2cc(COC(=O)c3cccs3)no2)cc1OC
    -2.8, -1.9

Only part of the results is shown; the hit share may differ from the screen's.
